mut p53 SMM = binds human mutant p53 on microarray | small molecule microarray binding, anti-GST fluorescence | calls only | hit rate 0.4% among 17,000;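 active = compounds whose four printed spots each glow above background more than chance allows, each with a p-value under 7%; compounds were printed on slides so no solution concentration is given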;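 also: about 2 pmol printed per array spot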
Myc binder = c-Myc (human) binding. calls only. P01106. hit rate 1.5% among 17,000. small molecule microarray, His-c-Myc binding, anti-His fluorescence;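 active = spot fluorescence over background with P-value below 7% in all four replicate spots, showing protein binding; compounds were printed on slides so no solution concentration is given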;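 also: score is binary with 100 for all four spots passing and 0 otherwise; about 2 pmol printed per array spot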
ID4 SMM = binders of human ID4 protein; small molecule microarray, Flag-ID4 binding, fluorescence F/B; calls only; AID 624137; hit rate 1.2% among 31,000; P47928;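 active = spot signal over background at p below 0.07 in all four prints; compounds were printed on slides so no solution concentration is given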;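 also: a binder raises fluorescence above local background on the spot; about 2 pmol printed per array spot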
Target sequence (P47928 whole entry, looked up): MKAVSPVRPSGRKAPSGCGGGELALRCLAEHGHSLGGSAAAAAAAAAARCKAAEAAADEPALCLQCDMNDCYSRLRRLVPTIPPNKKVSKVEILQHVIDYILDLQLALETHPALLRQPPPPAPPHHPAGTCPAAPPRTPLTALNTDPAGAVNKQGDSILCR
STAT3 SMM = binds human STAT3 on microarray. Small molecule microarray, His-STAT3 binding, anti-His fluorescence. hit rate 0.2% among 17,000. calls only. P40763;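 active = compounds whose four printed spots each show fluorescence over background unusually high for their array block, chance value under 7%; compounds were printed on slides so no solution concentration is given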;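 also: about 2 pmol printed per array spot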
Target sequence (P40763 whole entry, looked up): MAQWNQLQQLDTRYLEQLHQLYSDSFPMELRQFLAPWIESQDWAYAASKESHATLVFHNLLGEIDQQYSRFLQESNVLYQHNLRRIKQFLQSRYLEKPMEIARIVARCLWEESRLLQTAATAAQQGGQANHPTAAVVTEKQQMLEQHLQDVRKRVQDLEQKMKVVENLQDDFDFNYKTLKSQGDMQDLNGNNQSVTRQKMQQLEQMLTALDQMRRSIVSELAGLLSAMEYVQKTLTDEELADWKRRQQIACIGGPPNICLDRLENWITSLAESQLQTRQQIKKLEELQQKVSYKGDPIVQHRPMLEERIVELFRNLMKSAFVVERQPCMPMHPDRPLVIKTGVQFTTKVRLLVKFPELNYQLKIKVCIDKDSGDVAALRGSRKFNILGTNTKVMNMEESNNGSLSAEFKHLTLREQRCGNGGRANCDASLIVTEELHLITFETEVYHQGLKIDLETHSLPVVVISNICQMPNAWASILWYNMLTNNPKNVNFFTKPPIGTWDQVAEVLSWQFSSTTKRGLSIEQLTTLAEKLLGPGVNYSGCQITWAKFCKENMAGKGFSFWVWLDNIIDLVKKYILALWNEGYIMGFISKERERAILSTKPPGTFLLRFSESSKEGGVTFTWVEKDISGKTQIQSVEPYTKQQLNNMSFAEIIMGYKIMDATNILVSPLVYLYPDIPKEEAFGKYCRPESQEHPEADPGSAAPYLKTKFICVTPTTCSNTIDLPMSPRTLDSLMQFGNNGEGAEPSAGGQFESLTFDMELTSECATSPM
Calls only; i = inactive; nt = not tested or not shown; + = active, no number. The list is partial (hit frequency here may not be typical).

Values in the order – mut p53 SMM, Myc binder, ID4 SMM, STAT3 SMM
> Cc1noc(C)c1S(=O)(=O)Nc1ccc2c(c1)C(=O)N([C@H](C)CO)C[C@@H](C)[C@H](CN(C)C(=O)Cc1ccccc1)OCCCC[C@@H](C)O2
    i, i, i, i
> O=C(O)CSc1nc2cc(F)c(F)cc2[nH]1
    i, i, i, i
> CC12N=C3SCC(=O)N3[C@H](c3ccccc3O1)[C@H]2CO
    i, i, i, i
> C[C@@H]1CN([C@@H](C)CO)C(=O)Cc2cc(N(C)C)ccc2O[C@H]1CN(C)Cc1ccccc1
    i, i, i, i
> Cc1noc(C)c1S(=O)(=O)Nc1cccc2c1O[C@H](CN(C)C(=O)Nc1cccc3ccccc13)[C@H](C)CN([C@@H](C)CO)C2=O
    i, i, i, i
> Cc1noc(C)c1NC(=O)Nc1ccc2c(c1)C(=O)N([C@@H](C)CO)C[C@@H](C)[C@H](CN(C)C(=O)NC1CCCCC1)O2
    i, i, i, i
> C[C@@H]1CN([C@@H](C)CO)C(=O)c2cc(NC(=O)Nc3ccc4c(c3)OCO4)ccc2O[C@@H]1CN(C)C(=O)Nc1ccc(C(F)(F)F)cc1
    i, i, i, i
> C[C@@H]1CN([C@@H](C)CO)C(=O)c2cccc(NS(=O)(=O)c3cccs3)c2O[C@@H]1CN(C)C(=O)Nc1ccc(C(F)(F)F)cc1
    i, i, i, i
> C[C@@H]1CN([C@@H](C)CO)C(=O)c2cc(NC(=O)Nc3cccc4ccccc34)ccc2O[C@@H]1CN(C)C(=O)Nc1ccc2c(c1)OCO2
    i, i, i, i
> CSc1ncc(Cl)c(C(=O)Nc2sc3c(c2C(=O)NCCc2ccccc2)CCC3)n1
    i, i, i, i
> C[C@H]1CN([C@@H](C)CO)C(=O)Cc2cc(NC(=O)Cc3ccccc3)ccc2O[C@@H]1CN(C)CC1CC1
    i, i, i, i
> CNC[C@@H]1Oc2ccc(NC(=O)Nc3ccc(F)cc3)cc2C(=O)N([C@H](C)CO)C[C@@H]1C
    i, i, i, i
> Cc1nnc(Nc2ccc(OCC(=O)N3CCN(c4ccccc4)CC3)cc2)c2ccccc12
    i, i, i, i
> COc1ccc(CN(C)C[C@@H]2Oc3ccc(NC(=O)Nc4ccc(OC)cc4)cc3CC(=O)N([C@H](C)CO)C[C@H]2C)cc1
    i, i, i, i
> COc1ccc(S(=O)(=O)N(C)C[C@@H]2Oc3c(NC(=O)Nc4c(C)noc4C)cccc3C(=O)N([C@@H](C)CO)C[C@@H]2C)cc1
    i, i, i, i
> C[C@H](CO)N1C[C@H](C)[C@H](CN(C)C(=O)Nc2ccccc2)OCCCC[C@H](C)Oc2ccc(N(C)C)cc2C1=O
    i, i, i, i
> Cc1noc(C)c1NC(=O)N(C)C[C@@H]1OCCCC[C@H](C)Oc2ccc(NS(=O)(=O)c3cccs3)cc2C(=O)N([C@@H](C)CO)C[C@@H]1C
    i, i, +, i
> C[C@H](CO)N1C[C@H](C)[C@H](CN(C)C(=O)NC2CCCCC2)Oc2ccc(NC(=O)Nc3ccc4c(c3)OCO4)cc2C1=O
    i, i, i, i
> C[C@@H]1CN([C@H](C)CO)C(=O)CCCn2nncc2CO[C@H]1CN(C)C(=O)Nc1ccc(C(C)(C)C)cc1
    i, i, i, i
> C[C@@H]1CN([C@H](C)CO)C(=O)c2cc(NC(=O)Nc3ccccc3)ccc2O[C@@H](C)CCCCO[C@H]1CN(C)S(=O)(=O)c1ccccc1
    i, i, i, i

Ordered by SMILES length (low to high): part of the list above.
Values in the order – mut p53 SMM, Myc binder, ID4 SMM, STAT3 SMM
> CC12N=C3SCC(=O)N3[C@H](c3ccccc3O1)[C@H]2CO
    i, i, i, i
> CSc1ncc(Cl)c(C(=O)Nc2sc3c(c2C(=O)NCCc2ccccc2)CCC3)n1
    i, i, i, i
> C[C@H](CO)N1C[C@H](C)[C@H](CN(C)C(=O)Nc2ccccc2)OCCCC[C@H](C)Oc2ccc(N(C)C)cc2C1=O
    i, i, i, i
> C[C@H](CO)N1C[C@H](C)[C@H](CN(C)C(=O)NC2CCCCC2)Oc2ccc(NC(=O)Nc3ccc4c(c3)OCO4)cc2C1=O
    i, i, i, i
> Cc1noc(C)c1NC(=O)Nc1ccc2c(c1)C(=O)N([C@@H](C)CO)C[C@@H](C)[C@H](CN(C)C(=O)NC1CCCCC1)O2
    i, i, i, i

Carrying on:
Values in the order – mut p53 SMM, Myc binder, ID4 SMM, STAT3 SMM
> Cn1c(SCC(=O)Nc2c(F)cc(F)cc2Br)nnc1-c1ccco1
    i, i, +, i
> C[C@@H]1CCCCO[C@H](CN(C)C(=O)CCC(F)(F)F)[C@H](C)CN([C@@H](C)CO)C(=O)c2cc(NS(=O)(=O)c3cccs3)ccc2O1
    i, i, i, i
> Cc1cc(=O)oc2cc(OC(C)C(=O)Nc3sc4c(c3C(N)=O)CCCC4)ccc12 (stereo unspecified)
    i, i, +, i
> COc1ccc(NC(=O)Nc2ccc3c(c2)C(=O)N([C@H](C)CO)C[C@H](C)[C@@H](CN(C)S(=O)(=O)c2cn(C)cn2)O3)cc1
    i, i, i, i
> CCOc1ccc(NC(=O)C2CC(=O)NC(N3CCN(C)CC3)=N2)cc1 (stereo unspecified)
    i, i, i, i
> C[C@@H]1CN([C@H](C)CO)C(=O)c2cc(NC(=O)Nc3ccc(C(F)(F)F)cc3)ccc2O[C@@H](C)CCCCO[C@H]1CN(C)C
    i, i, i, i
> COc1ccc2c(c1)C(C)CC(C)(C)N2C(=O)CSc1nnc(C)s1 (stereo unspecified)
    i, i, i, i
> CCC(Sc1nnnn1-c1ccccc1)C(=O)Nc1ccccc1OC (stereo unspecified)
    i, i, i, i
> CCCCNC(=O)C(OC(=O)c1ccccc1)c1ccco1 (stereo unspecified)
    i, i, i, i
> C[C@@H]1CN([C@H](C)CO)C(=O)c2cc(NC(=O)Nc3ccc(F)cc3)ccc2O[C@@H](C)CCCCO[C@@H]1CN(C)C(=O)c1ccccc1
    i, i, i, i
> COc1ccc(C(=O)NCc2n[nH]c(=S)n2C)cc1OC
    i, i, i, i
> CC1CC(O)CC(C)(C)C1(O)/C=C/C(CO)O[C@@H]1O[C@H](CO)[C@@H](O)[C@H](O)[C@H]1O (stereo partly specified)
    i, i, nt, i
> C[C@@H]1CCCCO[C@H](CN(C)S(=O)(=O)c2cccs2)[C@H](C)CN([C@@H](C)CO)C(=O)c2cc(NS(=O)(=O)c3cccs3)ccc2O1
    i, i, i, i
> CC(C)c1ccc(NC(=O)CSc2nnc(N)s2)cc1
    i, i, i, i
> O=C(O)c1cc(O)c2c(c1)C(=O)c1cccc(O)c1C2=O
    i, i, i, i
> C=C1C(=O)O[C@H]2[C@H]1[C@@H](OC(=O)C(C)(O)C(C)Cl)C(OC(C)=O)/C(C(=O)OC)=C\CC[C@@]1(C)O[C@H]21 (stereo partly specified)
    i, i, nt, i
> CNC[C@@H]1OCCCC[C@@H](C)Oc2ccc(NS(=O)(=O)c3ccccc3)cc2C(=O)N([C@H](C)CO)C[C@@H]1C
    i, i, i, i
> COc1ccc(C(C)C(=O)c2ccc(O)cc2O)cc1O (stereo unspecified)
    i, i, i, i
> C[C@@H]1CCCCO[C@H](CN(C)Cc2ccccc2)[C@@H](C)CN([C@@H](C)CO)C(=O)c2cc(NS(=O)(=O)c3cccs3)ccc2O1
    i, i, i, i
> C[C@@H]1CCCCO[C@@H](CN(C)C)[C@H](C)CN([C@@H](C)CO)C(=O)c2cc(NC(=O)Nc3ccc(C(F)(F)F)cc3)ccc2O1
    i, i, i, i

Values in the order – mut p53 SMM, Myc binder, ID4 SMM, STAT3 SMM
> CC(C)NC(=O)N(C)C[C@H]1Oc2ccc(NC(=O)Nc3ccc(F)cc3)cc2CC(=O)N([C@H](C)CO)C[C@H]1C
    i, i, nt, i
> Cc1noc(C)c1NC(=O)N(C)C[C@H]1Oc2ccc(NC(=O)CCCN(C)C)cc2C(=O)N([C@H](C)CO)C[C@H]1C
    i, i, i, i
> C[C@@H]1CCCCO[C@@H](CN(C)C(=O)CCCN(C)C)[C@H](C)CN([C@@H](C)CO)C(=O)c2cc(NC(=O)CCCN(C)C)ccc2O1
    i, i, i, i
> Cc1noc(C)c1NC(=O)Nc1ccc2c(c1)C(=O)N([C@@H](C)CO)C[C@@H](C)[C@H](CN(C)C(=O)NC(C)C)OCCCC[C@@H](C)O2
    i, i, i, i
> CNC[C@H]1Oc2ccc(NC(=O)Nc3cccc4ccccc34)cc2CC(=O)N([C@@H](C)CO)C[C@@H]1C
    i, i, i, i
> C[C@H](CO)N1C[C@H](C)[C@@H](CN(C)S(=O)(=O)c2ccc(Cl)cc2)Oc2ccc(NS(=O)(=O)c3cn(C)cn3)cc2CC1=O
    i, i, i, i
> CCc1c(C)sc(NC(=O)c2cc(-c3ccccn3)nc3c(C)cccc23)c1C(=O)N1CCCCC1
    i, i, i, i
> Cc1nn(CC(O)COc2ccc(C(=O)c3ccccc3)cc2)c(C)c1Br (stereo unspecified)
    i, i, i, i
> C[C@H]1CN([C@@H](C)CO)C(=O)c2cccc(NS(=O)(=O)c3ccc(Cl)cc3)c2O[C@H]1CN(C)C(=O)Nc1ccc(C(F)(F)F)cc1
    i, i, i, i
> CNC[C@@H]1OCCCC[C@H](C)Oc2ccc(NC(=O)Nc3c(C)noc3C)cc2C(=O)N([C@@H](C)CO)C[C@@H]1C
    i, i, i, i
> C[C@@H]1CN([C@@H](C)CO)C(=O)c2cccc(N(C)C)c2O[C@@H]1CN(C)Cc1ccc(Cl)c(Cl)c1
    i, i, i, i
> C[C@@H]1CN([C@@H](C)CO)C(=O)c2cc(NC(=O)Nc3ccc(C(F)(F)F)cc3)ccc2O[C@@H]1CN(C)Cc1ccc(Cl)c(Cl)c1
    i, i, nt, i
> CC1(C)CC[C@]2(C(=O)O)CC[C@]3(C)C(=CCC4[C@@]5(C)C[C@@H](O)[C@H](O)[C@@](C)(CO)C5CC[C@]43C)C2C1 (stereo partly specified)
    i, i, nt, i
> C[C@H]1CC(=O)C2=C(C1)C(O)C(O)[C@@]1(O)[C@H]2C(=O)c2cccc(O)c2[C@@H]1O (stereo partly specified)
    i, i, i, i
> COc1ccccc1CN(C)C[C@H]1OCc2cn(nn2)CCCC(=O)N([C@H](C)CO)C[C@H]1C
    i, i, i, i
> C[C@@H]1CN([C@H](C)CO)C(=O)c2cc(NS(=O)(=O)c3cn(C)cn3)ccc2O[C@H]1CN(C)S(=O)(=O)c1cn(C)cn1
    i, i, i, i
> C[C@@H]1CCCCO[C@H](CN(C)S(=O)(=O)c2cn(C)cn2)[C@@H](C)CN([C@H](C)CO)C(=O)c2cc(NC(=O)c3ccccc3)ccc2O1
    i, i, i, i
> C[C@H](CO)N1C[C@H](C)[C@@H](CN(C)C(=O)c2ccccc2)OCCCC[C@H](C)Oc2ccc(NC(=O)Nc3ccc(F)cc3)cc2C1=O
    i, i, i, i
> COc1ccc(S(=O)(=O)N(C)C[C@@H]2Oc3ccc(NS(=O)(=O)c4ccc(Cl)cc4)cc3C(=O)N([C@H](C)CO)C[C@H]2C)cc1
    i, i, i, i
> CCCN(C)C[C@H]1OCCCC[C@@H](C)Oc2ccc(NC(=O)NC(C)C)cc2C(=O)N([C@@H](C)CO)C[C@H]1C
    i, i, i, i

Values in the order – mut p53 SMM, Myc binder, ID4 SMM, STAT3 SMM
> CC(=O)Nc1ccc(NS(=O)(=O)c2ccc(C)cc2[N+](=O)[O-])cc1
    i, i, i, i
> C[C@H](CO)N1C[C@H](C)[C@H](CN(C)Cc2ccc3c(c2)OCO3)Oc2ccc(NS(C)(=O)=O)cc2CC1=O
    i, i, i, i
> CNC[C@@H]1Oc2ccc(NC(=O)CCN3CCOCC3)cc2CC(=O)N([C@H](C)CO)C[C@@H]1C
    i, i, i, i
> CCOC(=O)c1c(C)oc2ccc(S(=O)(=O)n3cc(-c4ccc(C)cc4)c(N)n3)cc12
    i, i, i, i
> Cc1ccc(-c2nn3c(C)nnc3s2)cc1NC(=O)C(C)Oc1ccc(Cl)cc1Cl (stereo unspecified)
    i, i, i, i
> C[C@@H]1CCCCO[C@@H](CN(C)S(=O)(=O)c2cccs2)[C@@H](C)CN([C@H](C)CO)C(=O)c2cc(NC(=O)Cc3ccccc3)ccc2O1
    i, i, i, i
> CC(C)NC(=O)Nc1ccc2c(c1)C(=O)N([C@H](C)CO)C[C@H](C)[C@@H](CN(C)Cc1ccc(C(=O)O)cc1)OCCCC[C@@H](C)O2
    i, i, i, i
> C[C@@H]1CCCCO[C@H](CN(C)Cc2ccc(C(=O)O)cc2)[C@@H](C)CN([C@H](C)CO)C(=O)c2cc(NC(=O)C3CCCCC3)ccc2O1
    i, i, i, i
> COc1c(C(C)C)cc2c(c1O)[C@]13CC[C@H](OC1=O)C(C)(C)C3CC2 (stereo partly specified)
    i, i, nt, i
> C[C@H](CO)N1C[C@H](C)[C@H](CN(C)S(=O)(=O)c2ccc(F)cc2)OCCCC[C@H](C)Oc2ccc(NC(=O)c3ccncc3)cc2C1=O
    i, i, i, i
> c1cc(-c2nn[nH]n2)ccc1OCc1nn[nH]n1
    i, i, i, i
> Cc1noc(C)c1S(=O)(=O)Nc1ccc2c(c1)C(=O)N([C@H](C)CO)C[C@H](C)[C@@H](CN(C)CC1CC1)O2
    i, i, i, i
> O=C(NCc1ccccc1)C1=C[C@@H](c2ccc3c(c2)OCO3)C[C@@H](OCCCCO)O1
    i, i, i, i
> COc1ccc(C)cc1NC(=O)CNS(=O)(=O)c1ccc(C)cc1
    i, i, i, i
